From PubChem
GLA inh pH 4.5: alpha-galactosidase A (human) inhibition, pH 4.5. P06280. purified enzyme, 4-MU-alpha-Gal fluorescence, pH 4.5. activity change, negative = inhibition, % at 105 µM. 230,000 tested, under 10 active; inconclusive = small, poorly fitted or top-dose-only inhibition, or a rising curve; inactive = flat fitted curve, though single readings scatter; no compound was filed as active;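 note: 0% = full activity with enzyme and -100% = basal without enzyme; dose as in the result columns while the protocol names 77 µM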
Target sequence (P06280 whole entry, looked up): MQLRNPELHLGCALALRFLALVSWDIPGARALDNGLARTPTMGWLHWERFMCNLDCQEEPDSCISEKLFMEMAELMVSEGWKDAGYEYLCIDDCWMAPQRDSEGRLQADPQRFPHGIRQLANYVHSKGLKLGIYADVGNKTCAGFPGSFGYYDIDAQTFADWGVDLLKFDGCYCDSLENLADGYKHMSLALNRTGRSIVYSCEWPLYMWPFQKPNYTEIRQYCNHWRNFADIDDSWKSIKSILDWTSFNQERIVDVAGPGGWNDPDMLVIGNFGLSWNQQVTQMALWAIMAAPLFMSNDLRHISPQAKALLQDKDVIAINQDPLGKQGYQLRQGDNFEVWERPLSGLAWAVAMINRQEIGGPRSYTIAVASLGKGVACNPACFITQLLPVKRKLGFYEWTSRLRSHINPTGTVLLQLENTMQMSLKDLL
Rango-impB inh: Rango-importin beta binding inhibition; 340,000 tested, 0.031% active; AID 540263; Q14974; Potency, µM (highest dose often 92.2 µM), for inactives: at the top dose inhibition of complex formation; Rango CFP/YFP FRET sensor + importin beta, 45 min; active = rising FRET ratio curve, often small or poorly fitted; inconclusive = mostly compound fluorescence or quenching in the first reads; inactive = flat curves in all reads;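 note: potency is the fitted concentration of half-maximal effect; 0% = DMSO wells and 100% = buffer wells lacking importin beta; nearly all actives have a fitted effect of over 15% in size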
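FRET biosensor (snurportin 1 IBB flanked by EYFP and cerulean), 50 nM, with compound 5 min, then 0.125 microM importin beta in PBS, 1 mM DTT, 0.02% Tween-20, 0.1% BSA. CFP/YFP ratio read after 45 min at room temperature; pre-read flags interference.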
miR-21 reporter: miR-21 reporter, rising signal. HeLa miR-21 FLuc reporter, luciferase, 48 h. Potency, µM (top dose mostly 38.3 µM), inactives show at the highest dose reporter change, positive = more light. 340,000 tested, under 10 active. AID 2288; active = well fitted rising curve with a large enough effect; inconclusive = small, poorly fitted or top-dose-only effect; inactive = no such curve, though single readings can be large or run the other way;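 note: % of control where 0% means no effect; miR-21 action dims this reporter so a rising signal means less miR-21 action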
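Compounds were titrated across several concentrations (up to approximately 40 uM) and incubated 48 hours with HeLa miR-21-FLuc reporter cells (miR-21 target sequence downstream of FLuc, endogenous miR-21). Readout was firefly luciferase luminescence after lytic detection reagent.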
Rango dissoc inh: inhibitors of RanGTP-induced Rango-importin beta complex dissociation; Biochemical FRET Rango-importin beta, RanGTP-induced dissociation; Potency, µM (titrated, usually from 46.1 µM), for inactives: top-dose activity change, negative = inhibition; 340,000 tested, 0.071% active; AID 540253; active means falling FRET ratio curve, often poorly fitted, with flat reads before Ran was added; inconclusive means other falling curves, or compound fluorescence or quenching; inactive means flat or rising ratio curve;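 note: potency is the fitted concentration of half-maximal effect; % of control where 0% means no effect; nearly all actives have a fitted effect of over 45% in size; -100% = wells without RanGTP and RCC1; the record marks most hits as doubtful in a second field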
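Recombinant Rango FRET biosensor (EYFP–snurportin 1 IBB–cerulean CFP10) at 0.1 uM premixed with 0.25 uM importin beta in PBS, 1 mM DTT, 0.02% Tween-20, 0.1% BSA. Compound added 5 min; RanGTP-RCC1 (0.6 uM Ran, 2 mM GTP, 0.2 uM RCC1) then triggers release, read at 45 min.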
* marks the source's active call; other numbers are inactive results; ? = inconclusive; nt = not tested or not shown; & = joins results of further samples.

The opening three entries, ahead of the listing:
SMILES	GLA inh pH 4.5	Rango-impB inh	miR-21 reporter	Rango dissoc inh
CC(=O)Nc1ccc2c(c1)C(=Nc1cccc(C)c1)c1ccccc1-2	nt	0.6%	nt	11%
CCNC(=O)N1CCN(S(=O)(=O)c2ccc3c(c2)OCCCO3)CC1	nt	-2.3%	nt	-9%
CCOC(=O)c1c(NC(=O)CSc2nnc(-c3ccccc3C)n2C)sc(C(C)=O)c1C	-7	-0.6%	-2%	-19%

This part in full, repeating the preview:
SMILES	GLA inh pH 4.5	Rango-impB inh	miR-21 reporter	Rango dissoc inh
CC(=O)Nc1ccc2c(c1)C(=Nc1cccc(C)c1)c1ccccc1-2	nt	0.6%	nt	11%
CCNC(=O)N1CCN(S(=O)(=O)c2ccc3c(c2)OCCCO3)CC1	nt	-2.3%	nt	-9%
CCOC(=O)c1c(NC(=O)CSc2nnc(-c3ccccc3C)n2C)sc(C(C)=O)c1C	-7	-0.6%	-2%	-19%
Cc1ccc(/C=C2\SC(=S)N(CCCC(=O)NNC(=O)c3ccccc3O)C2=O)cc1	-5	5.8%	?	15%
CCOC(=O)CSc1n[nH]c(NC(=O)c2cccc(C)c2)n1	8	-0.6%	-4%	2%
CN1CCN(C(=O)C(N)Cc2ccccc2)CC1 (stereo not given)	2	?	-4%	2%
Cc1cccc(NC(=O)COc2ccc3oc4c(c3c2)CCCC4)n1	-2	0.5%	-33%	-17%
CCc1ccc(C(=O)CSc2n[nH]c(C)n2)cc1	-4	-0.7%	-14%	9%
O=C(/C=C/Nc1ccc(F)c(F)c1)c1cccs1	-14	?	-56%	?
O=C(NCc1cc(C(F)(F)F)cc(C(F)(F)F)c1)C1CC(c2cccc(F)c2)=NO1 (stereo not given)	-1	0.8%	2%	14%
CC(NC(=O)COC(=O)CN1C(=O)C2CCCCC2C1=O)c1ccccc1 (stereo not given)	nt	0.4%	nt	2%
CC(C)CNS(=O)(=O)c1ccc(CCC(=O)NCc2ccc(Cl)cc2)cc1	nt	3.5%	12%	3%
Cc1cc(S(=O)(=O)NCCN2CCOCC2)ccc1Cl	nt	-1.0%	-3%	0%
CCOC(=O)c1sc2nc(C)cc(C)c2c1NC(=O)c1ccco1	3	-0.7%	-2%	-1%
Cc1ccc(N2C(=O)CSC23C(=O)Nc2ccccc23)cc1 (stereo not given)	-5	-1.4%	0%	8%
CC(C(N)=O)N1C(=O)C2C3C=CC(C3)C2C1=O (stereo not given)	-10	-0.2%	-9%	20%
NC(=O)c1ncn([C@@H]2O[C@H](CNCc3ccccc3OCc3ccc(Cl)cc3Cl)[C@@H](O)[C@H]2O)n1	nt	5.2%	nt	-18%
c1cc(-c2sc(-c3ccncc3)c(-c3ccncc3)c2-c2ccncc2)ccn1	3	-3.4%	10%	-7%
CCCNC(=O)C(=O)NCCC1=CCCCC1	-2	-0.2%	-23%	2%
O=C(COC(=O)C12CC3CC(CC(Br)(C3)C1)C2)Nc1cccc(S(=O)(=O)N2CCOCC2)c1	nt	3.5%	nt	7%
COc1ccc(NC(=O)c2cccs2)cc1O	-1	-2.7%	-34%	-7%
CCCCCOc1ccc(C2C(C(=O)c3ccc(C)o3)=C(O)C(=O)N2c2cc(C)on2)cc1 (stereo not given)	nt	-3.2%	1%	-29%
NC(=O)c1cccc(C(N)=O)n1	1	-0.1%	0%	0%
CC(C)(C)C1CCc2c(sc(NC(=O)CSc3ncn[nH]3)c2C#N)C1 (stereo not given)	2	-0.9%	2%	-19%
Cc1cnc(C(=O)Nc2nccs2)cn1	-10	-2.0%	-32%	2%
C=CCN1CCN(C(c2ccc(OC)c(OC)c2)c2nnnn2C(C)(C)C)CC1 (stereo not given)	7	0.1%	-5%	13%
O=C(C1=C(O)C(=O)N(CCOCCO)C1c1ccccn1)c1cccs1 (stereo not given)	-6	2.0%	-8%	-12%
Oc1c(C(c2ccccn2)N2CCOCC2)ccc2cccnc12 (stereo not given)	-12	-0.5%	25%	0%
Cc1cc(C(F)F)n2nc(C(=O)Nc3sc4c(c3C(N)=O)CCC4)nc2n1	-4	-2.3%	-16%	-5%
O=C(COc1ccc(Cl)cc1)Nc1ncc([N+](=O)[O-])s1	-15	0.0%	19%	4%
NC(=O)c1ccc(OCC(F)(F)F)nc1	-8	-0.1%	-3%	6%
O=C(CCS(=O)(=O)c1ccc(Br)s1)NCc1ccccc1	2	3.7%	2%	12%
O=C(C[C@H]1C[C@H](C(=O)N2CCOCC2)[C@@]2(CCC3CCCC3)c3[nH]c4ccc(Cl)cc4c3CCN2C1=O)NCCN1CCOCC1	nt	-2.5%	nt	-4%
COc1ccc(OCCCC(=O)N2CCN(S(=O)(=O)c3cccc(F)c3)CC2)cc1	nt	-1.3%	nt	-8%
CC(=O)NC(Cc1ccc(F)c(F)c1)C(=O)NC1CCN(c2c(Cc3ccccc3)c(C)nc3ncnn23)CC1 (stereo not given)	-2	-0.6%	-14%	3%
CCCCC(=O)Nc1cc([N+](=O)[O-])ccc1F	4	-0.3%	4%	-6%
O=C(Nc1cccnc1)c1cc2c(s1)-c1ccccc1OC2	nt	-1.0%	-3%	6%
CC(C)[C@H]1COCCS(=O)(=O)N1Cc1ccccc1-c1ccccc1	nt	-5.7%	nt	5%
CC(NC(=O)Cc1ccc(Br)cc1)c1ccccc1 (stereo not given)	nt	4.6%	-19%	14%
CCOc1ccccc1N1CCN(C(=O)c2cc3ccccc3cc2OC)CC1	nt	3.1%	nt	32%
CCOC(=O)N1CCN(Cc2nc3c(c(=O)n(C)c(=O)n3C)n2CCC(C)C)CC1	1	-0.1%	0%	-10%
COc1cccc(C2CC(C(F)(F)F)n3ncc(C(=O)NCc4ccco4)c3N2)c1 (stereo not given)	-18	-1.1%	-4%	15%
CCCC(=O)Nc1ccccc1NC(=O)c1ccc(OCC)cc1	3	10%	-9%	-4%
Cc1ccc(NC(=O)C2(c3ccc([N+](=O)[O-])cc3)CCCC2)cc1	-9	-0.8%	-3%	13%
Cc1cc(NNC(=O)c2cccc(C(F)(F)F)c2)nc2c1c(C)nn2C	-6	0.7%	21%	2%
O=C(CSCCSCC(=O)c1ccco1)c1ccco1	1	nt	-12%	nt
CC(NC(=O)c1cc(S(=O)(=O)N2CCCC2)cn1C)c1ccccc1 (stereo not given)	nt	0.1%	-4%	9%
CCN(CC)S(=O)(=O)c1ccc(-c2nnc(SCC(=O)Nc3ccc(OC)cc3)o2)cc1	1	3.9%	3%	12%
COc1ccccc1CNS(=O)(=O)c1cc2c3c(c1)C(C)C(=O)N3CCC2 (stereo not given)	nt	9.4%	4%	-10%
CC(=O)NC1=NC(=O)/C(=C/c2cn(C(C)=O)nc2-c2ccccc2)S1	-7	?	25%	?
O=c1cc(NCCO)c2ccccc2o1	5	4.0%	-1%	3%
COc1ccccc1CN1C[C@@H]2C[C@@H](c3ccccc3C)N3CCC[C@@]23C1=O	-7	3.8%	-4%	-10%
C=CCCC1CN(CCCC)S(=O)(=O)c2c(F)cccc2O1 (stereo not given)	nt	2.8%	nt	-9%
CCOc1ccccc1NC(=O)c1c(NC(=O)CCC(=O)O)sc2c1CCCCC2	-4	?	-11%	-28%
C=CCn1c(SCC(=O)NCc2ccccc2)nnc1-c1ccccc1O	-9	-0.6%	11%	-6%
Cc1ccc(C)c(NC(=S)NCCN2CCOCC2)c1	nt	-0.5%	nt	11%
Cn1c(=O)[nH]c2ncn(C)c2c1=O	0&-2	?	nt	-7%
Cc1ccc(Nc2nc(COC(=O)C3CC3)cs2)cc1	-1	-0.6%	-40%	0%
CCCCc1ccc(NC(=O)Nc2c(C)n(C)n(-c3ccccc3)c2=O)cc1	nt	0.5%	1%	7%
COc1cc([N+](=O)[O-])c(C(=O)N2CCOCC2)c([N+](=O)[O-])c1	-1	-0.6%	-2%	-3%

Additional entries follow.
SMILES	GLA inh pH 4.5	Rango-impB inh	miR-21 reporter	Rango dissoc inh
O=c1c2ccccc2nc(-c2ccccc2)n1CCCN1CCOCC1	5	-2.0%	-1%	3%
COC(=O)c1ccc(NC(=O)CS(=O)(=O)Cc2ccccc2)cc1	-17	0.1%	-2%	-3%
CCC(=O)N1CCN(c2ccc(NC(=O)c3ccc4c(c3)OCCO4)cc2)CC1	4	3.1%	-26%	26%
O=C(c1ccc2ccccc2c1)C1CCCN(C(=O)CCn2cnnn2)C1 (stereo not given)	-5	0.4%	2%	-2%
CN1c2ccccc2N(C)C1c1ccc2c(c1)OCO2	-1	0.4%	5%	-10%
COc1ccccc1CNC(=O)COC(=O)Cc1c(F)cccc1Cl	10	1.1%	-1%	-8%
C=CCn1c(SCC(=O)NCC2CCCO2)nc2scc(-c3ccco3)c2c1=O (stereo not given)	-1	-3.7%	0%	-17%
Oc1ccccc1C(=S)N1CCCCC1	7	-0.1%	1%	5%
Cc1nc(NC(=O)CSc2nnc(-c3ccc4c(c3)OCO4)o2)c(Cl)cc1Cl	4	-0.1%	-61%	4%
O=C(CCCC(=O)OCC(F)(F)C(F)F)Nc1ccccc1F	-19	2.3%	-1%	1%
COC(=O)CSc1nc(Cc2ccccc2)nc2ccccc12	-4	5.9%	-5%	12%
CC1=CC(C)(C)NC(=S)N1CCO	nt	-1.9%	nt	-8%
COc1ccc(OC)c(NC(=O)Cc2coc3cc(C)cc(C)c23)c1	-11	1.1%	0%	10%
Fc1ccc(N2CCN(Cc3ccccn3)CC2)cc1	-9	0.1%	4%	-13%
Cc1nc(Nc2ccccc2F)c2oc3ccccc3c2n1	nt	5.6%	-34%	-4%
COCc1cc(C)nc2sc(C(=O)Nc3ccccc3C)c(N)c12	nt	?	-11%	-24%
Cc1ccc(CNC(=O)CSCc2ccccc2)cc1	4	0.0%	-12%	-9%
COc1ccc(CC2(CO)CCN(Cc3cccc4nccnc34)CC2)cc1	1	?	-1%	-6%
O=C(NCC1CC1)c1onc(CSc2ccncc2)c1C(=O)NCC1CC1	-2	-0.6%	1%	1%
O=C1CC(N2CCSCC2)C(=O)N1c1ccc(F)cc1 (stereo not given)	0	-1.4%	8%	-14%
CC1(C(=O)NCc2cccnc2)CCC(=O)N1Cc1cccs1 (stereo not given)	8	0.2%	-5%	-16%
COc1cc(/C=C(\C#N)C(=O)Nc2cccc(C(=O)O)c2)ccc1OCc1ccc(C)cc1	nt	-2.9%	-59%	-18%
O=[N+]([O-])c1ccc(Oc2cccc(F)c2)c2ccncc12	6	-0.5%	11%	0%
NC(=O)Cn1c(=O)n(CCc2ccccc2)c(=O)c2c3c(sc21)CCCC3	1	0.9%	4%	-4%
O=CN1CCN(C(=O)c2ccc3c(c2)OCO3)CC1	nt	1.7%	-8%	4%
N#Cc1ccc2ccn(CC(=O)N3CCCc4ccccc43)c2c1	-8	4.9%	-3%	-5%
O=C(O)C1CCCCN1S(=O)(=O)c1ccccc1 (stereo not given)	-2	1.2%	0%	-23%
Cc1[nH]c2ccc(Br)cc2c(=O)c1CN1CCOCC1	9	-2.0%	-5%	-1%
COc1cccc(/C=N/NC(=O)c2ccc(N3CCCC3=O)cc2)c1	nt	1.6%	11%	11%
O=c1c(Cl)c(Nc2cccc(Cl)c2)cnn1-c1nc2ccccc2s1	0	?	-51%	?
Cc1ccc(-c2n[nH]c(=S)n2/N=C/c2c(C)nn(-c3ccccc3)c2C)cc1	-7	-0.5%	-12%	-9%
Cc1ncsc1CCOC(=O)c1ccccc1	-6	3.0%	-27%	-10%
CCOc1ccc(C(=O)N[C@H](C(=O)Nc2ccccc2OC)C(C)C)cc1	nt	6.1%	-6%	-1%
O=C(O)Cn1nnnc1-c1ccc(F)cc1	-2	1.7%	-4%	8%
COc1ccnc(Oc2ccc(F)cc2)c1C(=O)N/C=N/OCc1cccc(F)c1	5	-4.2%	0%	-14%
COc1c(Br)cc(Br)cc1/C=C1/C(=O)N=C(N)N1C	-2	-4.1%	0%	1%
COc1ccccc1/C=C/C(=O)NNC(=O)c1cc(C)oc1C	nt	1.1%	nt	6%
CCn1c(COc2ccc(Cl)cc2)nnc1SCC(=O)Nc1ccc2c(c1)OCCO2	10	-11%	0%	-8%
CCCS(=O)(=O)Nc1c(C(=O)OC)[nH]c2ccccc12	8	0.3%	-12%	-7%

Only part of the results is shown; count on the stated rates, not on these rows.
